Screens (PubChem BioAssay)
Ub-GFP proteasome: proteasome inhibitors stabilizing ubiquitin-GFP reporter; 67,000 tested, under 10 active; Ubiquitin-GFP reporter cells, proteasome inhibition, GFP fluorescence; response scale: untreated = 0%, 10 µM MG-132 = 100%; Potency, µM (highest dose often 45.9 µM), for the others: top-dose activation (GFP accumulation), most hits filed as activators; active = well fitted activation curve with a large enough effect, not every such curve was filed as active; inconclusive = small, poorly fitted or top-dose-only effect, or another doubt; inactive = no such curve, though single readings can be large or run the other way; also: potency is read from the fitted curve at half-maximal effect
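U2OS cells stably expressing ubiquitin(G76V)-GFP, seeded overnight in 0.5% FBS medium, were exposed to compounds (qHTS, 46 uM to 2.9 nM) for 4 hr at 37 °C. GFP-positive cells were counted by laser cytometry (488 ex/515 em), normalized between basal and 10 uM MG-132.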
Epigenetic mod: epigenetic modulators derepressing GFP locus in mouse cells | mouse C127i GFP locus derepression, cytometry, 30 h | Potency, µM (titrated, usually from 46.1 µM), without a hit: at the top dose GFP derepression (activation) | 68,000 tested, 0.09% active | AID 597; also: % of control where 0% means no effect
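Derepression screen: silenced CMV-GFP reporter in murine C127i cells, 30 h compound incubation at 37 C, washed cells imaged by laser-scanning cytometer to enumerate GFP-expressing objects of 20 to 120 um.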
BRCT inh green: blocks human BRCA1 BRCT binding to phosphopeptide, green readout; P38398; BRCA1 BRCT-phosphopeptide binding, green fluorescence polarization; Potency, µM (top dose mostly 76.9 µM), inactives show at the top dose activity change, negative = inhibition, actives largely listed as inhibitors; 75,000 tested, 0.05% active; AID 875;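 also: potency is read from the fitted curve at half-maximal effect; plate controls were peptide without protein for full effect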
Target sequence (P38398 whole entry, looked up): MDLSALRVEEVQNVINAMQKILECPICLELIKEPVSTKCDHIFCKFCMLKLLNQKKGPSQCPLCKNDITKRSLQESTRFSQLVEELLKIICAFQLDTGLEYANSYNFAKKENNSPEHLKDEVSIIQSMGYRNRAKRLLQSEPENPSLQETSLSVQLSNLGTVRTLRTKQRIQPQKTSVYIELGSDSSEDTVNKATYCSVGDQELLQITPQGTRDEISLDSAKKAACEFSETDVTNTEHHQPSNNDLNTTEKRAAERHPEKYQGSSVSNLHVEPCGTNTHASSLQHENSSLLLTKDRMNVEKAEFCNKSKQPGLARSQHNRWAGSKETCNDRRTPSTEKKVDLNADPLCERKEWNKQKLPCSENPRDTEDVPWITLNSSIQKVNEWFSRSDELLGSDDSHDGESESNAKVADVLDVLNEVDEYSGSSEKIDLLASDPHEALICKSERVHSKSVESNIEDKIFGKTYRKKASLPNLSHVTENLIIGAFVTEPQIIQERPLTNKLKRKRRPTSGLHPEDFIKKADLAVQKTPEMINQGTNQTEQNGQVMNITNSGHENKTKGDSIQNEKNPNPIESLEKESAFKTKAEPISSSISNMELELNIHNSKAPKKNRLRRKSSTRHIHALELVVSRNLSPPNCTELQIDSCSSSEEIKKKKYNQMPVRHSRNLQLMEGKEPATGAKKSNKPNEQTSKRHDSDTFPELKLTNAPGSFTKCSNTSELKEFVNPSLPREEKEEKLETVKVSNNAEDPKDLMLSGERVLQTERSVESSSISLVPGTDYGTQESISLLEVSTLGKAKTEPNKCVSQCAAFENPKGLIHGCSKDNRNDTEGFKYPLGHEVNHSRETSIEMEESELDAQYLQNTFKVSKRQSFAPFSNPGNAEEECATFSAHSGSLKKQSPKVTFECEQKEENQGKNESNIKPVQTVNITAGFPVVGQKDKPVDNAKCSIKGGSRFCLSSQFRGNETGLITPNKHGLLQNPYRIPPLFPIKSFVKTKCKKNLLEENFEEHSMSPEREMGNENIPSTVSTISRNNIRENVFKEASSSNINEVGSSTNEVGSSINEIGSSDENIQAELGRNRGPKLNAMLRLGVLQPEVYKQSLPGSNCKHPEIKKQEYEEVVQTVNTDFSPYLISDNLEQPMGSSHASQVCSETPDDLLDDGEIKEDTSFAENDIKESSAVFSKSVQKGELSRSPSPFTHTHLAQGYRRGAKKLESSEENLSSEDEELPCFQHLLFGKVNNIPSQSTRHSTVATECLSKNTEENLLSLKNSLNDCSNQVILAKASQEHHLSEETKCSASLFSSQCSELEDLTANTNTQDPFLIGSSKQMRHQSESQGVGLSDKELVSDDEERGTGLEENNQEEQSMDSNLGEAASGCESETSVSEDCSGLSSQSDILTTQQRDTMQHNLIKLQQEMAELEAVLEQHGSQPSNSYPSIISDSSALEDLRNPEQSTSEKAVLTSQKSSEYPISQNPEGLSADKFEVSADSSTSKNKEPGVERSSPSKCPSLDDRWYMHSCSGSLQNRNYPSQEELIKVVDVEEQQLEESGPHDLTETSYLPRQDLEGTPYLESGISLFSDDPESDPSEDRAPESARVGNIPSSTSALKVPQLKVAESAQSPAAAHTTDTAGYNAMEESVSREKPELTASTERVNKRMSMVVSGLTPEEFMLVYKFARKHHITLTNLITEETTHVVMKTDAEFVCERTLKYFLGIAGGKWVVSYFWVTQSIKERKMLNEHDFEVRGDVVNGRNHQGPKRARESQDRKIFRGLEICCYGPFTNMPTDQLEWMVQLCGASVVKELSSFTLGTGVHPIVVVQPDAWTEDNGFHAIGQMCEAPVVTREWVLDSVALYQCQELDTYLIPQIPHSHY
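Fluorescence polarization: His-tagged BRCT (~35 kDa BRCA1 C-terminus, 250 nM) bound to 100 nM fluorescein-labeled phosphorylated 10-aa BACH1 peptide, pH 7.3 phosphate buffer with DTT and Tween 20. Compounds incubated 12 min at room temperature; inhibition read as lowered polarization.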
CRE-bla Fsk: modulators of forskolin-stimulated CRE signaling in CHO cells; CHO CRE-bla reporter (cAMP response element driving beta-lactamase), forskolin EC10, beta-lactamase ratio; Potency, µM (highest dose often 38.2 µM), without a hit: at the top dose activity change, negative = inhibition, usual class: activators; 71,000 tested, 2.5% active; AID 662; active = well fitted activation curve with a large enough effect in the signal ratio, with a control signal flat, not every such curve was filed as active; inconclusive = small, poorly fitted or top-dose-only effect, or effect the other way, or a change in a side signal; the % refers to the signal ratio; also: potency is read from the fitted curve at half-maximal effect; % of control where 0% means no effect
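Using CellSensor CRE-bla CHO cells in Opti-MEM with 0.5% dialyzed FBS, compounds were titrated with EC10 NKH 477 for 3 h at 37 °C. CCF4 ratio (460/530 nm) gave %Activity; AC50 derived.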
HADH2 inh: blocks human hydroxyacyl-CoA dehydrogenase type II; recombinant HADH2, NADH fluorescence, beta-hydroxybutyryl-CoA; Potency, µM (top dose mostly 57.1 µM), without a hit: at the highest dose activity change, negative = inhibition, usual class: inhibitors; 73,000 tested, 3.4% active; also: potency is read from the fitted curve at half-maximal effect; % is scaled to controls: 0 for no effect and ±100 for the full control effect; nearly all actives have a fitted effect of over 60% in size; many of its hits are not listed in these tables
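Activity measured as NADH fluorescence gain (360/450 nm), taken as the change between first and last reads of a 4-min kinetic run. Conditions: pH 9.0 Tris buffer, 20 nM E. coli-expressed His-tagged enzyme, 1 mM NAD+, 90 uM beta-hydroxybutyryl-CoA; 15-min compound preincubation.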
USP2a inhib: USP2a (human) protease inhibition; USP2a enzymatic assay, qHTS inhibition; AID 927; 60,000 tested, 0.1% active; O75604; Potency, µM (highest dose often 38.3 µM), for inactives: top-dose activity change, negative = inhibition, usual class: inhibitors;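 also: potency is read from the fitted curve at half-maximal effect; nearly all actives have a fitted effect of over 60% in size; plate controls were DMSO for no effect and NEM full inhibition control for full effect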
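Inhibition is measured in a cell-free coupled assay with 20 nM USP2 core, 20 nM Ub-PLA2 and 20 uM NBD C6-HPC, 2.5 h incubation. Activity normalized to NEM control.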
HBB splice mod: alters splicing of the hemoglobin beta chain; HBB splicing reporter cell assay, activation; EGFP reporter with mutant IVS2-654 intron; response scale: normalised to 500 nM splice-correcting PNA; Potency, µM (top dose mostly 46.1 µM), without a hit: at the top dose activation, actives largely listed as activators; 65,000 tested, 0.06% active; AID 925; also: potency is read from the fitted curve at half-maximal effect; 0% is about no effect
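Compounds were applied for 2 days to HeLa EGFP-654 cells, 500/well in Optimem with 2% FCS. The reporter's EGFP is disrupted by mis-splicing of beta-globin intron IVS2-654. Readout: summed well GFP fluorescence from 488 nm laser scanning; reference was 500 nM antisense […] 654 PNA.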
ALOX15 inhib: 15-hLO (ALOX15) enzyme inhibition; P16050; Potency, µM (top dose mostly 57.1 µM), for inactives: at the highest dose activity change, negative = inhibition, most hits filed as inhibitors; purified 15hLO-1, xylenol orange hydroperoxide absorbance; AID 887; 74,000 tested, 1.4% active; also: potency is read from the fitted curve at half-maximal effect; % is scaled to controls: 0 for no effect and ±100 for the full control effect; nearly all actives have a fitted effect of over 55% in size
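Inhibition is scored from a chromogenic endpoint. After 15 min enzyme-compound contact, arachidonic acid (50 uM final) reacts 6 min with 40 nM 15hLO-1 at room temperature, then Fe-XO reagent is added for 30 min and absorbance ratio recorded.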
DNA Pol III inh: blocks replication by bacterial DNA polymerase III holoenzyme. 71,000 tested, 0.25% active. Potency, µM (highest dose often 57.1 µM), for inactives: at the top dose activity change, negative = inhibition. reconstituted DNA polymerase III holoenzyme replication, biochemical; also: potency is read from the fitted curve at half-maximal effect; % is scaled to controls: 0 for no effect and ±100 for the full control effect
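Reconstituted *E. coli* holoenzyme (0.35 nM Pol III, 1 nM beta, 154 nM SSB, 2 nM primase) was preincubated with compound for 15 min at RT. Synthesis on 1.4 nM ssM13Gori ran 35 min, then was stopped with PicoGreen/EDTA and read as dsDNA fluorescence.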
BRCT inh red: inhibitors of human BRCA1 BRCT-phosphoprotein interaction (red fluorophore); AID 892; BRCT-phosphopeptide binding, red fluorescence polarization; 75,000 tested, 0.03% active; P38398; Potency, µM (titrated, usually from 76.9 µM), for inactives: at the highest dose activity change, negative = inhibition, hits mostly inhibitors; also: % is scaled to controls: 0 for no effect and ±100 for the full control effect
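Rhodamine-labelled pBACH1 10-mer (100 nM) bound to BRCT domain (100 nM) at pH 7.3; compounds incubated 12 min room temperature, polarization read. Free peptide defines full inhibition; unlabelled decapeptide titrated as control.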
Numbers without * were called inactive; u = inconclusive; x = not tested or not shown; [ ] = remark or other dose. Unless noted, calls follow the shape of the dose curve; as a rule, active = well fitted curve in the direction sought with a large enough effect; inconclusive = small, poorly fitted or top-dose-only effect, or another doubt; inactive = no such curve, though single readings can be large; an effect the other way counts as inactive or inconclusive. The list is partial (hit frequency here may not be typical).

Structure	Ub-GFP proteasome	Epigenetic mod	BRCT inh green	CRE-bla Fsk	HADH2 inh	USP2a inhib	HBB splice mod	ALOX15 inhib	DNA Pol III inh	BRCT inh red
Cc1noc(C)c1C(=O)OCC(=O)c1ccc[nH]1	0.3%	-2.9%	-2.9%	-1.4%	-11.3%	9.6%	-0.3%[57.5 µM]	-3.2%	-2.7%	-0.1%
Cc1[nH]c2ccccc2c1C1(O)C(=O)N(Cc2ccc3c(c2)OCO3)c2ccccc21 (stereo not given)	-6.6%	0.0%	-1.9%	-15.0%	-9.2%	34.2%[activator]	3.5%	-26.7%	-1.1%	-0.1%
COc1ccc(OCC(=O)Nc2cccc(NC(=O)COc3ccc(OC)cc3)n2)cc1	7.5%	-4.3%	0.8%	12.9%	4.2%	8.1%	0.5%	0.2%	-1.4%	1.2%
CN1CCc2c(sc3nc(SCC(=O)N4CCOCC4)nc(N)c23)C1	0.4%	u	-3.3%	1.0%	6.4%	5.7%	-0.8%	-9.1%	-6.1%	-1.2%
COCCn1c(=O)[nH]c2cc(C(=O)NCCCN3CCN(c4ccc(F)cc4)CC3)ccc2c1=O	0.6%	2.2%	-0.4%	-9.2%	u	23.3%	-0.8%	7.0%	-3.0%	0.5%
COc1ccc(C(=O)Nc2nc(C)c(C(=O)N(C)C)s2)cc1OC	2.4%	4.0%	-1.4%	14.8%	1.3%	0.0%	0.2%	13.5%	-3.0%	-2.6%
COc1ccc(NC(=O)CN2c3cccc4cccc(c34)S2(=O)=O)cc1	-1.3%	0.2%	2.2%	-3.0%	3.5%	29.3%	-4.1%	-2.7%	-1.2%	0.9%
Oc1ccc(N2CCN(C(c3ccncc3)c3nnnn3C3CCCC3)CC2)cc1 (stereo not given)	1.7%	-1.2%	-1.7%	-25.9%	u	-3.2%	-0.6%	u	-5.3%	-0.7%
CCOC(=O)N1CCN(Cc2nc(N)nc(Nc3ccc(Oc4ccccc4)cc3)n2)CC1	1.3%	0.0%	-0.6%	0.2%	-10.1%	46.7%[activator]	-1.9%	-12.7%	0.7%	1.4%
COc1ccc(C)cc1NC(=O)c1cc2c(CO)cnc(C)c2oc1=N	-11.9%	x	-2.2%	5.1%	3.9%	x	-0.4%	2.1%	-7.7%	2.3%
C(=C\c1ccccc1)/CSc1nnc(-c2ccccn2)n1Cc1ccco1	-5.3%	0.0%	0.8%	u	-9.6%	3.4%	-0.5%	-16.0%	0.4%	-1.9%
CC(=O)NC(Cc1ccc(F)cc1)C(=O)NC1CCN(c2nnnn2-c2ccccc2)CC1 (stereo not given)	5.9%	0.0%	0.7%	-6.3%	-7.9%	2.5%	-9.5%	6.3%	-8.7%	1.4%
CS(=O)(=O)c1ccc2nc(NC(=O)C3COc4ccccc4O3)sc2c1 (stereo not given)	2.6%	-2.5%	0.2%	u	u	34.1%[activator]	-1.3%	u	-3.5%	0.7%
O=C(CCn1nnc2ccccc2c1=O)N[C@@H](Cc1ccccc1)C(=O)O	-6.3%	-4.7%	-0.7%	u	9.9%	-3.4%	0.8%	11.8%	-0.2%	-1.2%
Cn1c(=O)c2c(ncn2Cc2ccc(Cl)c(Cl)c2)n(C)c1=O	-0.7%	0.0%	1.3%	21.1%	10.7%	1.9%	5.5%	-2.5%	-2.7%	0.4%
Cc1ccc2cc(C)c(N3CCN(c4ccccn4)CC3)nc2c1	12.8%	0.0%	0.7%	u	u	-6.4%	-1.1%	-3.5%	-0.4%	-0.5%
C=CCSc1nnc(NC(=O)c2ccc(S(=O)(=O)NCC3CCCO3)cc2)s1 (stereo not given)	-3.5%	3.3%	-2.5%	-7.0%	-24.2%	0.8%	0.6%	-0.7%	-2.7%	-2.6%
CCCCC(=O)Nc1cccc(NC(=O)c2ccc(Br)o2)c1	1.7%	-0.4%	0.3%	-10.2%	-2.7%	29.0%	-1.3%	4.1%	-0.4%	-1.9%
Cc1ccc(C(=O)NCCCN2CCOCC2)cc1N1CCCC1=O	-8.8%	0.0%	-1.2%	8.2%	2.4%	1.0%	-3.2%	-0.4%	-1.6%	-2.2%
COCCOC(=O)C(C#N)c1nc2ccccc2nc1N1CCCC1 (stereo not given)	-6.3%	4.2%	0.3%	15.8µM*	-26.2%	1.8%	2.6%	-8.8%	-1.1%	-1.1%
C=C(C)Cn1c(C2CC(=O)N(Cc3ccccc3)C2)nc2ccccc21 (stereo not given)	-4.4%	x	-0.2%	4.6%	2.4%	x	-0.2%	3.5%	-3.4%	-1.4%
O=C(NCC1CCCO1)C1CCN(C(=O)c2ccc(Br)cc2)CC1 (stereo not given)	-3.2%	-2.6%	-5.0%	3.6%	-0.1%	-0.2%	-2.0%	1.5%	-5.3%	0.3%
O=C(NCc1ccccn1)C1CCN(S(=O)(=O)c2cnc[nH]2)CC1	2.6%	0.0%	0.1%	3.5%	-11.1%	1.5%	-1.6%	3.6%	0.4%	-1.8%
CCOC(=O)c1sc(NC(=O)CSc2ccccn2)c(C#N)c1C	0.0%	0.0%	-0.4%	-13.9%	7.4%	-3.9%	-0.1%	-5.1%	0.0%	-0.4%
O=C(COC(=O)c1ccccn1)c1ccc(Br)cc1	-1.7%[9.17 µM]	-1.9%	-2.4%	u	-8.1%[11.4 µM]	6.7%[7.66 µM]	-2.1%[0.0738 µM]	7.8%[11.4 µM]	-1.8%[11.4 µM]	-0.9%
O=C(COc1ccc(Cl)cc1)NCCCn1ccnc1	u	3.6%	-1.3%	5.3%	6.2%	11.7%	0.7%	19.4%	-0.2%	-1.1%
CCC(C)COC(=O)C(C#N)c1nc2ccccc2nc1N1CCCCC1 (stereo not given)	-0.7%	-3.8%	0.6%	u	-1.7%	-14.7%	0.5%[57.5 µM]	-20.3%	1.7%	0.0%
Cc1cc(C(=O)NCc2ccc3c(c2)OCO3)n(-c2ccccc2)n1	-5.5%	-5.5%	-1.4%	1.9%	3.3%	x	0.3%	0.0%	-6.9%	-0.5%
CCOC(=O)N1CCN(C(=O)c2ccc3c(=O)n(CCC4=CCCCC4)c(=O)[nH]c3c2)CC1	-9.6%	-2.4%	-0.8%	u	-10.2%	35.2%[activator]	-0.4%	-9.1%	1.7%	0.4%
CN(C)c1nc(-c2ccccc2)c2cnn(Cc3ccccc3)c2n1	-4.9%	2.5%	1.2%	u	31.6µM*	-11.3%	-6.2%	-9.8%	0.2%	-1.4%
O=S(=O)(O)c1ccc(-c2nnc(-c3ccccn3)nc2-c2ccc(S(=O)(=O)O)o2)o1	-4.4%[9.17 µM]	-2.4%[9.22 µM]	-1.1%[15.4 µM]	-8.7%[7.6 µM]	u	x	2.9%[9.22 µM]	20.1%[11.4 µM]	-11.1%[11.4 µM]	1.1%[15.4 µM]
O=C(CCn1nnc2ccccc2c1=O)NCC1CCC(C(=O)O)CC1 (stereo not given)	-3.3%	-2.1%	-1.6%	-12.7%	2.1%	6.9%	4.2%	9.1%	-3.6%	-1.7%
Oc1ccc(CNc2ccccc2)c2cccnc12	4.6%	-0.9%	-2.9%	3.1%	-24.6%	168.4%[activator]	x	-5.9%	-4.6%	0.7%
N#CC1=C(O)CCCn2c1nc1ccccc1c2=O	2.9%	4.9%	0.2%	-5.3%	-7.2%	-8.4%	0.0%[57.5 µM]	-0.8%	-1.3%	-0.7%
CCOC(=O)N1CCC(NC(=O)Cn2ncn3c(cc4sc(CC)cc43)c2=O)CC1	0.2%	-1.1%	-2.0%	0.7%	3.7%	9.7%	-3.4%	6.7%	1.6%	-1.7%
COC(=O)c1ccccc1N1C(=O)[C@@H]2C(c3ccc(F)cc3)=NO[C@@H]2C1=O	-1.6%	1.6%	1.1%	10.9%	6.5%	15.9%	-1.2%	-0.4%	-6.9%	-0.1%

Copied from the list.
USP2a inhib with `Oc1ccc(CNc2ccccc2)c2cccnc12` → 168.4%[activator]
ALOX15 inhib with `O=S(=O)(O)c1ccc(-c2nnc(-c3ccccn3)nc2-c2ccc(S(=O)(=O)O)o2)o1` → 20.1%[11.4 µM]
